VACV Venus inh: inhibitors of vaccinia virus (Venus reporter); AID 720580; Vaccinia virus Venus reporter expression, fluorescence; 0.46% of 330,000 active; Potency, µM (top dose mostly 36.5 µM), inactives show at the top dose activity change, negative = inhibition, most hits filed as inhibitors; active means well fitted inhibition curve with a large enough effect; inconclusive means small, poorly fitted or top-dose-only effect; inactive means no such curve, though single readings can be large or run the other way; tested in A549 cells; note: nearly all actives have a fitted effect of over 30% in size; inactives centre near -10
VACV mCherry inh: vaccinia inhibition (mCherry reporter); AID 720579; Potency, µM (top dose mostly 36.5 µM), without a hit: at the highest dose activity change, negative = inhibition, actives largely listed as inhibitors; 0.63% of 310,000 active; Vaccinia virus mCherry reporter infection, fluorescence; about a quarter of the inactives have no number; active = well fitted inhibition curve with a large enough effect; inconclusive = small, poorly fitted or top-dose-only effect; inactive = no such curve, though single readings can be large or run the other way; tested in A549 cells; note: nearly all actives have a fitted effect of over 35% in size; inactives centre near -10
* marks the source's active call; other numbers are inactive results; i = inactive; u = inconclusive; x = no result given. % is set by controls: 0 for no effect and ±100 for the full control effect; potency is the fitted concentration of half-maximal effect.

The line under a structure holds: VACV Venus inh, VACV mCherry inh
> c1ccc(CSc2nnc(Cc3ccccc3)o2)cc1
  -2%, 5%
> CC(=O)Nc1cc(C(=O)NCc2ccc(F)cc2)ccc1S(=O)(=O)c1ccc(C)cc1
  -7%, -4%
> Cc1ccc(Cn2nnc3c(=O)n(CC(=O)c4ccccc4)cnc32)cc1
  9%, -9%
> COC(=O)C(Cc1ccc(OC(=O)c2ccccc2C)cc1)N1Cc2ccccc2C1=O (stereo not drawn)
  -8%, x
> C=C(C)C1CC=C(C)/C(=N/NC(=O)CCCNc2cccc(C)c2)C1 (stereo not drawn)
  -22%, -18%
> Cc1cc(CN(C)C(=O)CC2C(=O)NCCN2Cc2c(F)cccc2Cl)n[nH]1 (stereo not drawn)
  -6%, i
> O=C(Nc1ccccc1)c1cccc(S(=O)(=O)Nc2ccccn2)c1
  -18%, -17%
> COC(=O)c1ccccc1NC(=O)Cn1cnc2sc(C)c(S(=O)(=O)N3CCC(C)CC3)c2c1=O
  -13%, -8%
> O=C(CSc1ccccc1F)NC(=O)c1ccc(Cl)cc1
  0%, 0%
> O=C1C(=O)N(C2CCN(S(=O)(=O)c3ccccc3)CC2)CCN1Cc1ccccc1
  0%, 0%
> COc1cc(OC)cc(-c2nc3ccccc3c(=O)n2NC(=O)c2cccnc2Cl)c1
  -6%, i
> CN(C)c1ccc(CNc2ncc(Br)cc2Br)cc1
  -15%, -21%
> C=CC[C@@H](Cc1ccc(F)cc1)C(=O)OC[C@@H]1CCCN1C(=O)[C@H](CC=C)CC(=O)NCCO
  -17%, -15%
> COC(=O)c1cc(NC(=O)COC(=O)C2CCC2)cc(C(=O)OC)c1
  -16%, -17%
> N#Cc1ccc(OCC(=O)OCC(=O)c2ccccc2)cc1
  0%, -13%
> COc1ccc(CCN2C(=O)CC(N3CCOCC3)C2=O)cc1OC (stereo not drawn)
  -21%, x
> NC(=O)c1ccc(NC(=O)COC(=O)CC(NC(=O)c2ccccc2Cl)c2ccccc2)cc1 (stereo not drawn)
  -1%, -6%
> COC(=O)c1ccc(NC(=O)CN2C(=O)CCc3cc(S(=O)(=O)N4CCCCC4)ccc32)cc1
  -19%, -19%
> O=C(CCC1CCCC1)N1CCN(C(=O)COc2ccccc2)CC1
  -17%, -1%
> CCN(CC)C(=O)C1=C(C)N(CCC2=CCCCC2)C(=O)C(CC(=O)NCC2CCCCC2)C1 (stereo not drawn)
  -13%, i

Part of the list above, as tab-separated lines:
mol	VACV Venus inh	VACV mCherry inh
CC(=O)Nc1cc(C(=O)NCc2ccc(F)cc2)ccc1S(=O)(=O)c1ccc(C)cc1	-7%	-4%
Cc1ccc(Cn2nnc3c(=O)n(CC(=O)c4ccccc4)cnc32)cc1	9%	-9%
COC(=O)C(Cc1ccc(OC(=O)c2ccccc2C)cc1)N1Cc2ccccc2C1=O (stereo not drawn)	-8%	x

Next section
The line under a structure holds: VACV Venus inh, VACV mCherry inh
> Cc1c[n+]([O-])cc(C)c1[N+](=O)[O-]
  -3%, -8%
> CC(=O)N(c1ccc(Cl)cc1)C1SC(=O)N(c2ccccc2)C1=O (stereo not drawn)
  -15%, i
> CCOC(=O)Nc1ccc(/C=C/c2ccnc3ccccc23)cc1
  u, -17%
> CCN1CCn2c3c(c4cccc(C)c42)CCCC31 (stereo not drawn)
  -24%, 0%
> Cc1cccc(/C=N/NC(=O)c2ccccc2OCc2cccc(Br)c2)n1
  -14%, u
> CCOC(=O)C(=O)N1CCN(c2ccccc2OC)CC1
  -12%, -4%
> NS(=O)(=O)c1ccc(CNC(=O)CNC(=O)Cc2ccccc2)cc1
  2%, -6%
> c1ccc(-c2ccc3ccccc3n2)cc1
  3%, i
> COc1ccc(C)cc1S(=O)(=O)Nc1cc2c3c(c1)CC(=O)N3CCC2
  u, u
> CC[C@]12C(=O)N(C)C[C@H]([C@@H]3C(=O)N(Cc4ccccc4)C(=O)[C@@H]31)N2C(=O)c1ccc(C(F)(F)F)cc1
  -2%, i
> COc1ccc(OCC(=O)N/N=C(\C)c2ccc(-n3ccnc3)cc2)cc1
  -3%, -17%
> Cc1cc(S(=O)(=O)NCCc2ccncc2)cc(C)c1F
  0%, -11%
> O=C(Nc1nnc(S(=O)(=O)N2CCCc3ccccc32)s1)c1ccccc1Br
  -11%, -13%
> NC(=O)SCC(=O)Nc1ccc(Cl)cc1
  -14%, x
> Oc1c(Br)cc(Br)cc1C=Nc1ccc2c(c1)OCCO2
  -8%, i
> CC1(C(=O)NCc2cccs2)Cc2c(-c3cccc(C(F)(F)F)c3)ccnc2O1 (stereo not drawn)
  -16%, -1%
> Cc1c(C(=O)O)sc(S(=O)(=O)N2CCN(C(=O)Cc3ccccc3)CC2)c1C(=O)O
  -5%, -8%
> CCOC(=O)c1cc(NC(=O)Cc2ccc(S(=O)(=O)N3CCOCC3)s2)cc(C(=O)OCC)c1
  -18%, u
> C=CCOCCn1[nH]c2ccccc2c1=O
  -3%, -16%
> Cc1ccc(NC(=O)c2cnn(-c3ccccc3)c2C)c(C)c1
  -21%, -1%
> Cc1cccc(C)c1-n1nnnc1C1(C)CCC(=O)N1c1ccc(N2CCOCC2)cc1 (stereo not drawn)
  2%, i
> COc1ccc(CCNC(=O)CSc2nnc(-c3ccc(F)cc3)o2)cc1OC
  -12%, -1%
> N#Cc1cc2cc3c(cc2nc1Cl)OCCO3
  -6%, -13%
> Cc1cc(C)cc(-n2ccn(Cc3ccc(F)cc3)c(=O)c2=O)c1
  -9%, -11%
> Cc1nc2sc3c(c2c(=O)[nH]1)CCCCC3
  -10%, 5%
> O=c1ccn(C2CCCO2)c(=O)[nH]1 (stereo not drawn)
  -3%, -16%
> CC(=O)N1c2ccccc2C(=O)C1N1CCN(c2cc(Cl)ccc2C)CC1 (stereo not drawn)
  -12%, -12%
> Cc1cc(Cl)ccc1OCC(=O)N(Cc1ccc(N(C)C)cc1)CC1CCCO1 (stereo not drawn)
  -6%, -10%
> CCCC(=O)N1CCCC1(C)C(=O)NCc1ccc(F)cc1Cl (stereo not drawn)
  -3%, i
> C/C(=N\NC(=O)Cn1nc(C)c(Br)c1C)c1cccs1
  -17%, i
> O=C(Nc1cccc2ccccc12)C1CCN(C(=O)NCc2ccccc2)CC1
  -5%, i
> CCOC(=O)C1=C(O)/C(=C/c2ccc(OCC(=O)O)c(OCC)c2)SC1=Nc1ccc(C)cc1
  4%, -19%
> Cc1cccc(-n2ccnc2SCC(=O)Nc2nccs2)c1
  -8%, x
> CCC1CCCCN1S(=O)(=O)c1ccc(C(=O)Nc2sc3c(c2C(N)=O)CCC3)cc1 (stereo not drawn)
  -10%, -11%
> CSc1nc2ccc(NS(=O)(=O)c3cccc(Cl)c3Cl)cc2s1
  -12%, -12%
> C/C(=N\NC(=O)c1ccn[nH]1)c1cn(C)nc1C
  -18%, i
> Cc1ccc(C(=O)Nc2ccc(S(=O)(=O)N3CCCC3)cc2)o1
  -8%, -9%
> CCc1nnc(NC(=O)CCC(=O)NCc2ccc(OC)cc2)s1
  -3%, -6%
> O=C(c1ccco1)N1CCN=C1SCc1ccccc1F
  0%, 10%
> CSc1ccc(CN(C)C(=O)C(Cc2ccccc2)NC(=O)c2ccccc2)cc1 (stereo not drawn)
  -20%, -12%
> CCCc1cn(CC(C)n2c(=O)c3ccccc3n2Cc2cc(C(C)C)no2)nn1 (stereo not drawn)
  11%, -14%
> O=C(CC1(O)C(=O)Nc2ccccc21)c1ccccc1 (stereo not drawn)
  6%, u
> COc1ccc(-c2noc(CCC(=O)NC3CCN(Cc4ccccc4)CC3)n2)cc1
  -19%, -25%
> CCOC(=O)CSc1nc(-c2ccc(F)cc2)cc(C(F)(F)F)c1C#N
  -1%, -8%
> O=C(Nc1ccccc1-c1ccccc1)c1cnccn1
  -26%, -6%
> O=C(c1cccs1)N1CCN(Cc2ccccn2)CC1
  2%, -2%
> COC(=O)[C@@]12C[C@@H](CC(=O)NCCC(C)C)C(=O)N(Cc3ccccc3)C1=CCC(C)(C)C2
  -25%, -28%
> Cc1ccc(S(=O)(=O)NC(C(=O)N2CCN(S(=O)(=O)c3cccc(F)c3)CC2)C(C)C)cc1 (stereo not drawn)
  -8%, -17%
> COC(=O)c1ccc2nc(NC(=O)CN3C(=O)CCC3=O)sc2c1
  -5%, -11%
> Cc1c(C(=O)CN2CCSCC2)c2ccccc2n1C
  -6%, i
> COc1ccc(OC)c(S(=O)(=O)N/N=C(/C)c2c[nH]c3ccccc23)c1
  -16%, -3%
> C/C(=N/NS(=O)(=O)c1ccc(Cl)cc1)c1cccc(O)c1
  -7%, x
> COc1ccc(NS(=O)(=O)c2ccc(C)c(C(=O)N3CCCCCCC3)c2)cc1
  -17%, -23%
> Cc1cc(C(O)c2ncc(-c3ccc(Cl)cc3)[nH]2)ccc1F (stereo not drawn)
  -13%, 15%
> O=C(COC(=O)c1ccccn1)NCc1cccc(Cl)c1
  -1%, -19%
> CCOc1ccc(C(=O)NC(C)(C)CC)cc1
  8%, -3%
> O=C(COc1cccc2ccccc12)N1CCN(c2ccccn2)CC1
  -11%, -3%
> CCOC(=O)[C@]12CCC=C1N(Cc1cccc3ccccc13)C(=O)[C@H](CC(=O)N1CCC(c3ccccc3)CC1)C2
  -1%, -10%
> CN(C)C(=O)CN1CCN(c2nc3nonc3nc2N2CCCCC2)CC1
  4%, -15%
> OC(Cc1cccc(C=NN2CCOCC2)n1)(C(F)(F)F)C(F)(F)F
  -13%, -1%

Another view of two compounds above:
> OC(Cc1cccc(C=NN2CCOCC2)n1)(C(F)(F)F)C(F)(F)F
  VACV Venus inh = -13%
  VACV mCherry inh = -1%

> O=C(COc1cccc2ccccc12)N1CCN(c2ccccn2)CC1
  VACV Venus inh = -11%
  VACV mCherry inh = -3%

Following part
The line under a structure holds: VACV Venus inh, VACV mCherry inh
> O=C(O)CC1NC(=S)N(Cc2ccccc2)C1=O (stereo not drawn)
  -13%, -19%
> CC(C)(C)c1nnc2sc(SCC(O)=C(C#N)c3nc4ccccc4[nH]3)nn2c1=O
  11%, -8%
> CC(=O)Nc1ccc(S(=O)(=O)N2CCN(C(=O)c3ncoc3-c3cccc(F)c3)CC2)cc1
  -21%, -1%
> Cc1cccc(CNc2ccc(C(CC(N)=O)NC(=O)c3cccc(Br)c3)cc2[N+](=O)[O-])c1 (stereo not drawn)
  -3%, i
> CCOc1cccc(C2c3[nH]c4ccccc4c3CCN2C(=O)CSCc2ccc(F)cc2)c1 (stereo not drawn)
  -14%, i
> COc1cccc(C(=O)C2CCCN(Cc3ccccn3)C2)c1 (stereo not drawn)
  -4%, -9%
> O=C(NC1CCCC1)C(c1ccncc1)N(Cc1ccccc1F)C(=O)c1csnn1 (stereo not drawn)
  4%, -12%
> CCCc1cc(=O)[nH]c(Nc2ccc(OCC)cc2)n1
  -15%, -7%
> Cc1oc(C(C)(C)C)cc1C(=O)NCC(=O)NCC(=O)O
  -16%, i
> CC1CN(C(=O)c2cc3c(=O)n4ccccc4nc3s2)CC(C)O1 (stereo not drawn)
  -3%, -11%
> Cc1onc(-c2ccccc2Cl)c1C(=O)N1CCCc2ccccc21
  -21%, -25%
> O=C(c1nnc(-c2ccc(Cl)cc2)o1)C1CCCC1
  2%, 1%
> O=C(O)CCSc1nnc(SCC(=O)NCC(F)(F)F)s1
  -3%, -3%
> Cc1cc(S(=O)(=O)Nc2cccnc2)c(Cl)cc1Cl
  -19%, -13%
> Cn1nc(C(=O)Nc2ccc(S(=O)(=O)Nc3ncccn3)cc2)ccc1=O
  -6%, -13%
> COc1ccc(-c2cc(NC=O)c3ncc(-c4cccc(C(=O)N(C)C)c4)n3c2)cn1
  -28%, u
> Cc1ccc(C(=O)O)cc1N=Cc1cc(Br)cc(Br)c1O
  -3%, -9%
> CCOC(=O)N1CCN(c2ncc3c(n2)CC(c2ccc(OC)c(OC)c2)CC3=O)CC1 (stereo not drawn)
  -12%, -20%
> C[C@H](NC(=O)[C@@H]1Cc2ccccc2CN1C(=O)OC(C)(C)C)C(=O)NCC1CCCO1 (stereo partly drawn)
  -21%, i
> COCCCNC(=O)N1CCN(c2nnc(C)c3c(C)n(-c4ccc(Cl)cc4)nc23)CC1
  u, 8.9µM*
> CCC(C)NC(=O)CSc1nc2cc3c(cc2c(=O)n1CCCC(=O)NCc1ccc2c(c1)OCO2)OCO3 (stereo not drawn)
  -4%, -1%
> O=C(/C=C/c1ccc(-c2ccccc2[N+](=O)[O-])o1)c1ccccc1
  3%, -10%
> COc1ccc(C(=O)Nc2cccc(/C(C)=N/NC(=O)c3ccc([N+](=O)[O-])c(C)c3)c2)cc1OC
  -2%, -13%
> COc1ccccc1CNC(=O)Cc1cc(=O)[nH]c(=O)[nH]1
  -12%, i
> COc1ccc(S(=O)(=O)N2c3ccccc3OCC2C(C)(C)C)cc1 (stereo not drawn)
  0%, -28%
> CCC(C)NC(=O)c1sc2nc(C)c(C(=O)Nc3ccc(C)cc3C)c(-c3ccc(NC(C)=O)cc3)c2c1N (stereo not drawn)
  -10%, -1%

Single entries from the results shown:
Reading of `COc1ccc(S(=O)(=O)N2c3ccccc3OCC2C(C)(C)C)cc1` (stereo not drawn) under VACV Venus inh: 0%
Reading of `CCC(C)NC(=O)CSc1nc2cc3c(cc2c(=O)n1CCCC(=O)NCc1ccc2c(c1)OCO2)OCO3` (stereo not drawn) under VACV Venus inh: -4%
Reading of `COc1ccc(C(=O)Nc2cccc(/C(C)=N/NC(=O)c3ccc([N+](=O)[O-])c(C)c3)c2)cc1OC` under VACV mCherry inh: -13%
Reading of `COc1ccccc1CNC(=O)Cc1cc(=O)[nH]c(=O)[nH]1` under VACV Venus inh: -12%
